Cruzain inh Det – qHTS Assay for Promiscuous and Specific Inhibitors of Cruzain (with detergent); Potency, µM, inactives show max response, negative = inhibition, actives largely listed as inhibitors; Cruzipain (Trypanosoma cruzi), P25779; purified cruzain, Z-FR-AMC fluorescence, 0.01% Triton; 200,000 tested, 0.43% active;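 further: plate controls were neutral wells for no effect and buffer without enzyme for full effect; nearly all actives have a fitted effect of over 40% in size; top concentration of the series not given in the record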
Target sequence (P25779 123-467 limits assumed): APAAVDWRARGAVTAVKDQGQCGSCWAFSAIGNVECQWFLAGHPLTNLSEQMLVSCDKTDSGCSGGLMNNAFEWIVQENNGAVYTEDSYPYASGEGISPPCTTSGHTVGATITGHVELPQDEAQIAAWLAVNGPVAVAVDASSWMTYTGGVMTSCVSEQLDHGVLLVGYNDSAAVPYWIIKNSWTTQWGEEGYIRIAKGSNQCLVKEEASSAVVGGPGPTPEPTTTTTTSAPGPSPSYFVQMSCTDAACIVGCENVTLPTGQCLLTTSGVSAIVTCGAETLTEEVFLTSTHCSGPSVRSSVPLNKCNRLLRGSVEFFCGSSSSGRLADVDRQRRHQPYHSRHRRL
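Detergent-containing run (0.01% Triton X-100) in acetate buffer pH 5.5 with 5 mM DTT: enzyme at 1.5 nM final, 15 min compound preincubation at room temperature, then 2 uM Z-FR-AMC substrate. Activity taken as 60 s fluorescence increase at 360/450 nm.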
RE007 growth inh – qHTS Assay for Inhibitors of the HIV-1 protein Vpr | S. pombe RE007 Vpr strain, BacTiter-Glo ATP luminescence, 24 h; control for the full effect not named in the record | Potency, µM (doses to about 92.2 µM), for the others: at the highest dose activity change, negative = less growth | 360,000 tested, 0.21% active | AID 651644, 2012; active = well fitted falling curve with a large enough effect; inconclusive = small, poorly fitted or top-dose-only effect; inactive = no such curve, though single readings can be large or run the other way;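 further: on the % scale 0 is the no-effect control and ±100 the full control effect; nearly all actives have a fitted effect of over 50% in size; the assay follows cell death caused by Vpr and the record does not say whether a fall means rescue or toxicity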
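Fission yeast RE007 carrying one integrated HIV-1 vpr copy, seeded at OD 0.01 in PMG+AL medium with 23 nL pinned compound. Grown 24 h at 30 degrees; viability read by BacTiter-Glo luminescence after 5 min.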
Cruzain inh noDet – qHTS Assay for Promiscuous and Specific Inhibitors of Cruzain (without detergent); purified cruzain, Z-FR-AMC fluorescence, no detergent; 200,000 tested, 2.3% active; Cruzipain (Trypanosoma cruzi), P25779; Potency, µM, for the others: max response, negative = inhibition, hits mostly inhibitors;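 further: plate controls were enzyme without inhibitor for no effect and buffer without enzyme for full effect; nearly all actives have a fitted effect of over 40% in size; top concentration of the series not given in the record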
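Purified cruzain at 1.5 nM, pre-incubated 15 min with compound at room temperature in 100 mM sodium acetate pH 5.5, 5 mM DTT, 0.00005% Triton X-100. Reaction started with 2 uM Z-FR-AMC; AMC fluorescence increase over 60 s gives rate.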
StopGo reporter – High Throughput Screening for Foot and Mouth Disease Virus Antivirals. human cells with a luciferase reporter of 2A StopGo recoding; control for the full effect not named in the record. Potency, µM (top dose mostly 57.9 µM), for inactives: at the top dose signal change, negative = less light. 410,000 tested, 1.2% active; active = well fitted falling curve with a large enough effect; inconclusive = small, poorly fitted or top-dose-only effect; inactive = no such curve, though single readings can be large or run the other way; tested in HEK293T cells; further: on the % scale 0 is the no-effect control and ±100 the full control effect; nearly all actives have a fitted effect of over 45% in size; luciferase light after 4 h
LASV entry inh – qHTS for Inhibitors of binding or entry into cells for Lassa Virus; Lassa virus pseudotype entry inhibition, cell reporter; control for the full effect not named in the record; Potency, µM (top dose mostly 37.9 µM), for inactives: top-dose activity change, negative = inhibition, actives largely listed as inhibitors; 300,000 tested, 1.2% active; active means well fitted inhibition curve with a large enough effect; inconclusive means small, poorly fitted or top-dose-only effect, or effect the other way; inactive means flat fitted curve, though single readings scatter; tested in HEK293 cells; further: on the % scale 0 is the no-effect control and ±100 the full control effect; nearly all actives have a fitted effect of over 50% in size; luciferase read-out
NS1 function inh – qHTS Assay for Inhibitors of Influenza NS1 Protein Function; S. cerevisiae slowed by influenza A NS1, growth recovery by OD600; Potency, µM (series often up to 46.1 µM), for inactives: at the top dose activity, positive = more growth; 270,000 tested, 0.4% active; AID 2326, 2010; active means well fitted rising curve with a large enough effect; inconclusive means small, poorly fitted or top-dose-only effect; inactive means no such curve, though single readings can be large or run the other way; further: nearly all actives have a fitted effect of over 50% in size
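Read-out: OD600 growth recovery of NS1-expressing budding yeast. Cells grown overnight at 30C in -URA glucose medium, washed, resuspended and diluted 1:100 in 2% galactose assay medium, pH 6.0. Same strain lacking NS1 served as positive control.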
Marburg entry inh – qHTS for inhibitors of binding or entry into cells for Marburg Virus; Marburg virus pseudotyped entry inhibition, cell reporter; control for the full effect not named in the record; about a third of the inactives were read at about 46 µM; Potency, µM (top dose mostly 37.8 µM), for the others: at the top dose activity change, negative = inhibition, most hits filed as inhibitors; 300,000 tested, 1.8% active; active = well fitted inhibition curve with a large enough effect; inconclusive = small, poorly fitted or top-dose-only effect, or effect the other way; inactive = flat fitted curve, though single readings scatter; tested in HEK293 cells; about a fifth of its hits are not listed in these tables; further: on the % scale 0 is the no-effect control and ±100 the full control effect; luciferase read-out
SARS PLP yeast – qHTS of Yeast-based Assay for SARS-CoV PLP; S. cerevisiae expressing SARS-CoV PLpro, growth rescue; control for the full effect not named in the record; 330,000 tested, 0.19% active; Potency, µM (titrated, usually from 32.9 µM), for inactives: at the highest dose activity, positive = growth rescue; AID 485353, 2010; active means well fitted rising curve with a large enough effect; inconclusive means small, poorly fitted or top-dose-only effect; inactive means no such curve, though single readings can be large or run the other way; further: 0% is about no effect; nearly all actives have a fitted effect of over 55% in size; growth read by luminescence after 48 h
An asterisk follows results filed as active; ? = inconclusive; nt = not tested or not shown; & = joins results of further samples; [ ] = another dose, or the depositor's remark. Unless noted, the call rests on the fitted dose curve; in most records, active means well fitted curve in the direction sought with a large enough effect; inconclusive means small, poorly fitted or top-dose-only effect, or another doubt; inactive means no such curve, though single readings can be large; an effect the other way counts as inactive or inconclusive. Potency means the concentration at half of the fitted maximal effect.

SMILES	Cruzain inh Det	RE007 growth inh	Cruzain inh noDet	StopGo reporter	LASV entry inh	NS1 function inh	Marburg entry inh	SARS PLP yeast
Cc1ccccc1OCC(=O)Nc1nnc(SCc2cc(=O)n3cc(Cl)ccc3n2)s1	1.5%	nt	-5.4%	-7.2%	-2.9%[46.1 µM]	nt	nt	nt
CCC1(OC(=O)CN)C(=O)OCc2c1cc1n(c2=O)Cc2cc3ccccc3nc2-1 (stereo unspecified)	nt	-26.3%	nt	-23.1%	nt	-49.9%	nt	-4.0%
Cc1cccc(-c2c3c(=O)n(C)c(=O)n(C)c3cn2C2CCCCC2)c1	-4.9%	-3.5%	3.2%	-12.9%	?	11.5%	?	-3.7%
COc1ccc(NC(=O)CSc2nc3ccsc3c(=O)n2Cc2ccccn2)c(OC)c1	nt	51.8%	nt	0.0%	-24.0%	nt	-2.1%[46.1 µM]	0.9%
O=C(O)CC(Cc1ccccc1)c1ccc2c(c1)OCO2 (stereo unspecified)	1.5%	-8.5%	-2.9%	-9.5%	1.3%	-56.0%	18.1%	2.3%
COc1ccccc1Nc1nnc(SCC(=O)N2CC(=O)Nc3ccccc32)s1	-7.9%	-24.0%	-3.8%	-22.3%	14.1%	-4.9%	14.4%	4.6%
CSc1nc(C)c(Cc2c(F)cccc2Cl)c(=O)[nH]1	nt	-5.6%	nt	25.6%	nt	8.0%	nt	-0.8%
CN(O)C(=O)Nc1ccc([N+](=O)[O-])cc1	nt	2.1%	nt	-14.7%	nt	-0.5%	nt	-0.8%
NC(=O)c1c(NC(=O)C2CCCO2)sc2c1CCC2 (stereo unspecified)	2.9%	-3.3%	1.6%	47.1%[activator]	6.6%	7.3%	17.4%	-2.3%
CCOc1ccc(NC(=O)c2nn(C)cc2Br)cc1	-3.4%	-3.4%	-5.6%	67.0%[activator]	22.2%	-14.0%	?	-6.2%
COc1ccc(-c2c(C)c3ccc(O)c(CN4CCCC(C)C4)c3oc2=O)cc1OC (stereo unspecified)	-10.7%	nt	-7.7%	-3.8%	4.2%[46.1 µM]	nt	nt	nt
Cc1cc(NC(=O)c2cc3n(n2)C(C(F)(F)F)CC(c2ccco2)N3)no1 (stereo unspecified)	1.0%	4.2%	-9.8%	-14.3%	nt	-5.9%	nt	8.5%
CC(C)Cc1[nH]c(=O)c(C#N)c2c1CCC2	3.1%	-6.4%	-0.7%	2.0%	?	11.0%	12.9%&12.9%	2.3%
Cc1ccc(-n2ncc3c2CCCC3NC(=O)c2ccccc2N2CCOCC2)cc1C (stereo unspecified)	nt	-4.0%	nt	-29.8%	-1.8%	-110.3%	13.3%	-17.4%
CCOc1cccc(-c2cc(C(=O)N/N=C/c3ccc(OC)c(CN4CCOCC4)c3)c3ccccc3n2)c1	-11.8%	10.5%	?	9.0%	?	-0.8%	8.2µM*	-24.0%
CCOc1ccc(NC(=O)c2nn(C)c3c2CS(=O)(=O)c2ccccc2-3)cc1	-7.1%	nt	26.0%	-6.7%	-13.4%[46.1 µM]	nt	nt	nt
Nc1cc(=O)[nH]c(SCCOc2ccccc2)n1	nt	-2.1%	nt	4.0%	6.3%	8.5%	-3.3%[46.1 µM]	0.1%
O=C(Nc1cccc([N+](=O)[O-])c1)c1ccc2c(c1)OCCO2	-4.9%	-28.9%	-0.2%	-16.4%	?	-16.6%	?	-38.8%
CCC1(C)Cc2c(c(=O)n(-c3ccccc3)c3ncnc(N)c23)CO1 (stereo unspecified)	-5.6%	-6.6%	-2.4%	0.2%	11.4%	?	4.4%	0.7%
CCOC(=O)c1[nH]c(C)c(C(=O)NCc2ccccc2Cl)c1C	-3.9%	nt	?	-2.0%	-9.2%[46.1 µM]	nt	?	nt
Cc1cc(-c2ccco2)n(CC(=O)NCc2ccccc2)n1	18.3%	3.2%	-8.4%	-2.9%	nt	-4.1%	nt	-7.1%
COc1ccc(N2CCN(C(=O)COC(=O)CCOc3ccccc3C)CC2)cc1	nt	-3.9%	nt	?	-14.1%	nt	2.5%[46.1 µM]	1.4%
COC(=O)c1ccccc1NC(=O)c1noc2c1CSc1ccccc1-2	-7.7%	nt	-2.5%	15.1%	0.9%[46.1 µM]	nt	-24.9%[46.1 µM]	nt
Cc1ccc(C(=O)N/N=C/c2ccc(N3CCOCC3)cc2)c(C)c1	nt	17.1%	nt	-19.4%	-21.7%	nt	-7.1%[46.1 µM]	0.0%
COc1ccc(Cn2ccc3nc(C)c(C(=O)NCc4ccc(F)cc4)cc3c2=O)cc1	-3.1%	nt	?	-17.2%	?	nt	nt	nt
COc1ccc2c(c1)CCc1c(C(=O)N3CCCCCC3)noc1-2	-9.9%	8.8%	5.6%	63.9%[activator]	48.2%[14.3 µM]	-62.4%	1.2%	-3.7%
CCc1nnc(NC(=O)c2ccc(S(=O)(=O)N3CCc4ccccc4C3)cc2)s1	3.6%	-12.4%	?	-17.6%	1.3%	6.8%	28.6%	-5.8%
O=C(COC(=O)c1cccc(OC(F)F)c1)NCC1CCCO1 (stereo unspecified)	nt	3.6%	nt	-16.6%	-10.0%[46.1 µM]	nt	9.7%[46.1 µM]	-10.2%
CC(=O)N1CCC(Nc2ccc(C)cc2)CC1	1.0%	-5.6%	9.6%	0.0%	nt	-2.0%	nt	-1.6%
Cc1sc2nc(CN3CCOCC3)[nH]c(=O)c2c1-c1ccccc1	-1.8%	2.3%	1.1%	-15.1%	-3.2%	-5.5%	?	-16.7%
CCOC(=O)Cn1cc(/C=N/NC(=O)CC#N)c2ccccc21	nt	-12.4%	nt	-8.3%	-18.7%	1.9%	1.1%[46.1 µM]	-1.4%
Cc1ccc(NC(=S)Nc2cccc3cnccc23)cc1C	nt	-28.7%	nt	?	?	-0.9%	?	1.7%
COc1ccc(C2C(C#N)=C(N)Oc3cccc(O)c32)cc1 (stereo unspecified)	nt	-3.5%	nt	-17.4%	nt	-1.4%	nt	1.9%
C/C(=N\NC(=O)c1cc2ccccc2cc1O)c1ccccn1	nt	-11.9%	nt	?	?	-14.0%	?	1.0%
CC(C)Cc1nnc(NC(=O)C2CCN(C(=O)c3ccc(Cl)cc3)CC2)s1	nt	-10.1%	nt	-25.5%	-2.0%	nt	2.9%	-0.5%
Cc1ccccc1SCC(=O)N1CCN(c2ccc(C(F)(F)F)cn2)CC1	-13.7%	29.9%	-0.6%	?	1.2%	-2.4%	?	13.3%
Cc1cc(Br)c(S(=O)(=O)NCc2ccncc2)cc1C	nt	0.0%	nt	-2.6%	?	-4.8%	?	?
CN1CCc2nc3sc(C(=O)Nc4cccc(C#N)c4)c(N)c3cc2C1	?	nt	-27.6%	-8.8%	24.0%[46.1 µM]	nt	?	nt
COc1ccc(NC(=O)CN2C(=O)NC(C)(c3ccc4c(c3)OCCO4)C2=O)cc1S(N)(=O)=O (stereo unspecified)	nt	-4.8%	nt	3.2%	-8.5%[46.1 µM]	nt	8.7%[46.1 µM]	16.8%
CCC(Sc1nc(C)cc(C)n1)C(=O)Nc1nccs1 (stereo unspecified)	nt	10.5%	nt	5.6%	nt	3.0%	nt	7.4%
Fc1ccccc1/C=N/Nc1ccc(Cl)nn1	nt	0.6%	nt	51.9%[activator]	nt	-2.5%	nt	-2.8%
Cc1ccc(NC(=O)Cn2c(=O)oc3ccccc32)c(C)c1	nt	7.2%	nt	-20.1%	-13.7%	8.8%	-8.7%	1.0%
Cc1cc(NS(=O)(=O)c2ccc(NC(=O)C(C)Oc3ccc(Cl)cc3)cc2)no1 (stereo unspecified)	2.8%	-7.7%	5.8%	7.7%	2.4%	?	12.5%	7.5%
CCOc1ccc(CN(C)CC(=O)Nc2cccc(C)c2)cc1OC	nt	14.0%	nt	?	0.2%	nt	-1.0%[46.1 µM]	-4.3%
Cc1cc(Cl)ccc1OCCCC(=O)NO	1.8%	28.7%	1.5%	-24.8%	?	-9.7%	2.3%	?
CCOC(=O)C1CCN(C(=O)c2cn(-c3ccccc3)nc2-c2cccnc2)CC1	1.0%	nt	-3.3%	nt	nt	-2.5%	8.9%	3.6%
N#C/C(=C/c1ccncc1)c1nc2ccccc2c(=O)[nH]1	nt	-11.8%	nt	23.7%	-3.2%	18.2%	-0.7%[46.1 µM]	3.9%
O=C1c2ccccc2-c2n[nH]c(=O)c3ccc(N4CCCCC4)c1c23	nt	-23.5%	nt	?	-27.0%	nt	-25.9%[46.1 µM]	-1.6%
COc1ccc(N2CC(C(=O)Nc3cccc(C)n3)CC2=O)cc1 (stereo unspecified)	nt	12.6%	nt	0.5%	nt	2.3%	nt	0.5%
CCn1c(SCC(=O)N/N=C/c2c[nH]c3ccccc23)nnc1-c1ccc(Cl)cc1	-10.4%	12.2%	10.3%	?	?	-23.8%	?	4.5%
COc1ccc(F)c(CN2CCC(CO)(Cc3cccc(C(F)(F)F)c3)CC2)c1	nt	-6.6%	nt	-26.7%	-19.9%	-0.4%	?	-1.6%
O=C(CCc1nc(-c2cccs2)no1)Nc1cnc2ccccc2c1	0.0%	4.7%	?	-9.8%	0.3%	-1.4%	55.4%	-37.5%
CCC(C)C(NC(=O)C1CCC(C)CC1)C(=O)Nc1ccc(OC)cc1 (stereo unspecified)	nt	-8.4%	nt	19.7%	?	0.3%	-14.2%[46.1 µM]	2.6%
Cc1nc(-c2ccc(S(=O)(=O)N3CCN(CCc4ccccc4)CC3)s2)cs1	nt	3.1%	nt	?	?	-0.3%	2.4%[46.1 µM]	-0.7%
C[N+](C)(C)CCC(=O)c1cccc2ccccc12	14.1µM*	nt	10µM*	-19.5%	nt	-30.9%	4.47µM*	nt
O=C1[C@H]2[C@@H](c3ccc(F)cc3)N3C(=O)N(c4ccc(Br)cc4)C(=O)[C@@]3(Cc3ccccc3)[C@H]2C(=O)N1C1CCCCC1	nt	9.3%	nt	-14.5%	nt	?	nt	8.9%
CCOc1ccc(NS(=O)(=O)c2cc(C(=O)N3CCC3)ccc2Cl)cc1	nt	-13.0%	nt	-1.5%	3.9%	nt	-10.4%	-2.1%
CCOc1cccc(/C=N/N=C/c2cccc(OCC)c2O)c1O	nt	-8.3%	nt	3.0%	-1.3%[46.1 µM]	0.3%	11.5%[46.1 µM]	-0.8%
